High-throughput results deposited in PubChem BioAssay by several laboratories.
RN4220 kill = S. aureus RN4220 growth inhibition; 330,000 tested, 0.33% active; OD600, 16 h; inhibition, % (concentration not given with the values);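 active means z-score of -3 or lower and OD600 up to 0.18 on both plates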;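 further: plate controls were untreated cells for no effect and reference antibiotic for full effect; stock transfer was 100 nL into about 80 µL; one replicate is shown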
Sa ugtP lethal = compounds lethal to S. aureus RN4220 ugtP deletion mutant; 330,000 tested, 0.54% active; growth inhibition, % (no concentration beside the values); OD600 growth, 16 h; some inactives read as strong as hits; AID 1259309;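 active means z-score under -3 and OD600 up to 0.15 on both plates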;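 further: plate controls were untreated wells for no effect and antibiotic for full effect; wells of about 80 µL received 100 nL stock; the first replicate is given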
PrP UTR inh = inhibition of PrP 5' UTR reporter expression. cell-based PrP 5' UTR mRNA reporter, plate reader. inhibition, % (no concentration beside the values). 340,000 tested, 0.35% active;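 active means every replicate at 50% or more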;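 further: 0 = median of the neutral control wells; tested in H4 reporter cells; numbers are from one replicate; inactives centre near -14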
BJeLR lethal = BJeLR cell viability loss. BJeLR (HRASV12) viability, CellTiter-Glo ATP luminescence, 48 h; reference of the scale not given here. inhibition, % (no concentration beside the values). 300,000 tested, 0.17% active. AID 1554;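 active means replicate mean above 50%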;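 further: 50 nL library stock added to about 25 µL; numbers are from one replicate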
Autofluor counter = compound fluorescence in toxin protease inhibitor counterscreen; compound autofluorescence counterscreen, microsphere flow cytometry; stronger effect = higher value; fluorescence intensity (concentration not given with the values); 360,000 tested, 3.1% active; AID 624483;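 active means at least 3 SD above the mean of all compounds, about 16000 in these data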;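 further: 100 nL of 1 mM stock went into each well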
Mtb hypoxia inh = inhibitors of hypoxia-regulated fluorescent reporter in Mycobacterium tuberculosis. 300,000 tested, 0.1% active. M. tuberculosis hypoxia-regulated fluorescent reporter, fluorescence. fluorescence inhibition, % (concentration not given with the values);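 active means 35 to 45% if threefold the growth effect, above 45% if 1.5-fold the growth effect; inactive means the rest, general growth blockers included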;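 further: wells of about 50 µL received 100 nL stock; 0% = vehicle wells and 100% = reference inhibitor wells; whole bacteria with a GFP reporter of the hypoxia response; strong numbers were not always called active; many hits fall short of the cut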
Mtb hypoxia inh growth = also measured in Mtb hypoxia inh; calls as there; growth inhibition, %; measured here: M. tuberculosis growth (absorbance);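 0% = vehicle and 100% = reference antibiotic; read after six days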
* = called active by the depositor; x = no result given; & = joins results of further samples.

SMILES	RN4220 kill	Sa ugtP lethal	PrP UTR inh	BJeLR lethal	Autofluor counter	Mtb hypoxia inh	Mtb hypoxia inh growth
Cc1cc(CN(C)C)c(OC(=O)N(C)C)cc1C	3.3	4	-9	-5	3841	x	x
Cc1cc2occ(CC(=O)NNC(=O)c3ccccc3)c2cc1C	-0.4	-3	-23	2	5400	3	3
CC1CCCN(S(=O)(=O)c2ccc(NC(=O)CN3CCN(C)CC3)cc2)C1 (stereo unspecified)	2.0	2	-16	-7	16136*	3	-7
CCC(=O)Nc1ccc(OC)cc1OC	7.5	0	-12	-2	3822	8	-1
CN(C(=O)COC(=O)CNC(=O)C12CC3CC(CC(C3)C1)C2)C1CCS(=O)(=O)C1 (stereo unspecified)	1.4	1	-15	-5	7199	-1	5
COC(=O)C1=C(C)N(CCCC(=O)O)C(=O)NC1c1cc2c(cc1[N+](=O)[O-])OCO2 (stereo unspecified)	6.8	6	-25	-8	2968	8	-5
CC(C)CCN1CCN(C2CCN(c3ccccc3)CC2)CC1CCO (stereo unspecified)	-1.3	6	-22	-4	2325	7	5
Cc1ccc(NC(=O)CON=Cc2ccccc2C)c(C)c1	3.6	4	x	x	x	x	x
CC(C)(C)NC(=O)NC(=O)CN1CCN(S(=O)(=O)c2ccc3c(c2)CCCC3)CC1	-1.3	3	-10	-7	7416	-4	6
CC(C)c1nnc(NC(=O)CCCCCN2C(=O)C3C4C=CC(C4)C3C2=O)s1 (stereo unspecified)	2.2	8	-2	8	5522	3	3
CC(=NNC(=O)CSc1ccccn1)c1ccc([N+](=O)[O-])cc1	8.4	1	x	x	x	-2	-1
C/C=C(\C)C(=O)NCCN1C2=NC[C@H](C(C)C)N2C[C@@H]1Cc1ccc(OC)cc1	x	x	-4	-6	4362	x	x
COCCn1c(SCC(=O)NN2C(=O)NC(C)(c3ccccc3)C2=O)nnc1-c1ccncc1 (stereo unspecified)	2.8	3	-29	x	3448	-1	-5
O=C(CNc1ccccc1Cl)c1ccc(Br)cc1	15	25	-25	-8	3084	15	6
O=C(c1ccc(NS(=O)(=O)c2cccc([N+](=O)[O-])c2)cc1)N1CCN(C(=O)c2ccco2)CC1	-2.0	-1	-22	x	3504	7	8
C/C(=N\NC(=O)c1ccc(N(C)C)cc1)c1cccnc1	x	x	-35	-8	4309	x	x
CCOC(=O)c1oc2c(CN3CCN(CCO)CC3)c(O)c(CC)cc2c(=O)c1-c1nc2ccccc2s1	-0.1	-1	-4	8	3810	-1	16
CN(C(=O)CSc1nc(C2CC2)n(-c2ccccc2)n1)C1CCS(=O)(=O)C1 (stereo unspecified)	5.6	4	-11	x	x	-7	-4
O=[N+]([O-])c1cc(Cl)ccc1N1CCN(c2ccccc2O)CC1	-1.5	26	-13	6	3643	0	1
O=C(CS(=O)(=O)c1cccc(Cl)c1)Nc1ccccc1Cl	5.7	-4	-27	0	9078	6	7
COc1ccc(-n2cnnc2SCC(=O)N(C)C2CCS(=O)(=O)C2)cc1 (stereo unspecified)	0.8	2	-22	1	23013*	3	14
CC(=NO)c1ccc2c3c([nH]c2c1)CCCC3	6.3	-11	x	x	x	12	11
CCOC(=O)C(C)Sc1nc(=O)n2cccc(C)c2n1 (stereo unspecified)	6.3	4	-6	-2	3948	10	13
C=CCC(O)c1c(-c2ccccc2)nn(C)c1Cl (stereo unspecified)	-1.4	-3	-14	3	2533	12	-1
O=C(CSc1nnc(CNC(=O)c2ccc(F)cc2)o1)NCC1CCCO1 (stereo unspecified)	0.8	2	-15	-3	4496	0	-3
O=C1NC(Cc2ccccc2)CO1 (stereo unspecified)	2.2	-9	x	x	x	12	3
Cc1cccc(NC(=O)c2ccc(S(=O)(=O)N3CCCCC3)cc2)c1	2.5	10	-13	-6	4831	7	2
Brc1ccc(C2=Nc3ccccc3C(c3ccncc3)=NN2)cc1	2.7	-2	-21	4	4658	3	2
O=C1/C(=C\c2cccc(O)c2)SC(=S)N1Cc1ccccc1	2.7	-15	-5	-7	3327	0	-10
O=C1NC(=O)N(c2ccc(Cl)cc2)C(=O)/C1=C/c1coc2ccc(O)cc2c1=O	3.5	5	-12	-2	3681	0	0

Already shown: entries from further up.
SMILES	RN4220 kill	Sa ugtP lethal	PrP UTR inh	BJeLR lethal	Autofluor counter	Mtb hypoxia inh	Mtb hypoxia inh growth
C/C=C(\C)C(=O)NCCN1C2=NC[C@H](C(C)C)N2C[C@@H]1Cc1ccc(OC)cc1	x	x	-4	-6	4362	x	x
COCCn1c(SCC(=O)NN2C(=O)NC(C)(c3ccccc3)C2=O)nnc1-c1ccncc1 (stereo unspecified)	2.8	3	-29	x	3448	-1	-5
O=C(CNc1ccccc1Cl)c1ccc(Br)cc1	15	25	-25	-8	3084	15	6
O=C(c1ccc(NS(=O)(=O)c2cccc([N+](=O)[O-])c2)cc1)N1CCN(C(=O)c2ccco2)CC1	-2.0	-1	-22	x	3504	7	8
C/C(=N\NC(=O)c1ccc(N(C)C)cc1)c1cccnc1	x	x	-35	-8	4309	x	x
CCOC(=O)c1oc2c(CN3CCN(CCO)CC3)c(O)c(CC)cc2c(=O)c1-c1nc2ccccc2s1	-0.1	-1	-4	8	3810	-1	16
CN(C(=O)CSc1nc(C2CC2)n(-c2ccccc2)n1)C1CCS(=O)(=O)C1 (stereo unspecified)	5.6	4	-11	x	x	-7	-4
O=[N+]([O-])c1cc(Cl)ccc1N1CCN(c2ccccc2O)CC1	-1.5	26	-13	6	3643	0	1
O=C(CS(=O)(=O)c1cccc(Cl)c1)Nc1ccccc1Cl	5.7	-4	-27	0	9078	6	7
COc1ccc(-n2cnnc2SCC(=O)N(C)C2CCS(=O)(=O)C2)cc1 (stereo unspecified)	0.8	2	-22	1	23013*	3	14
CC(=NO)c1ccc2c3c([nH]c2c1)CCCC3	6.3	-11	x	x	x	12	11
CCOC(=O)C(C)Sc1nc(=O)n2cccc(C)c2n1 (stereo unspecified)	6.3	4	-6	-2	3948	10	13
C=CCC(O)c1c(-c2ccccc2)nn(C)c1Cl (stereo unspecified)	-1.4	-3	-14	3	2533	12	-1
O=C(CSc1nnc(CNC(=O)c2ccc(F)cc2)o1)NCC1CCCO1 (stereo unspecified)	0.8	2	-15	-3	4496	0	-3
O=C1NC(Cc2ccccc2)CO1 (stereo unspecified)	2.2	-9	x	x	x	12	3
Cc1cccc(NC(=O)c2ccc(S(=O)(=O)N3CCCCC3)cc2)c1	2.5	10	-13	-6	4831	7	2

The list continues:
SMILES	RN4220 kill	Sa ugtP lethal	PrP UTR inh	BJeLR lethal	Autofluor counter	Mtb hypoxia inh	Mtb hypoxia inh growth
CCOC(=O)CC1C(=O)NCCN1C(=O)NC1CCCCC1 (stereo unspecified)	2.3	8	-21	6	11592	5	4
CCCCN1C2=NCCCN2c2cc(C)c(C)cc21	9.0	8	-12	3	4535	x	x
Cc1ccc(C)c(-n2cc(-c3ccc(Cl)cc3)nc2SCC(=O)NC2CCS(=O)(=O)C2)c1 (stereo unspecified)	2.1	-4	-22	-3	2065	6	5
Cc1noc(C)c1COC(=O)c1ccc2c(c1)OCO2	8.1	-1	-20	3	3090	12	3
CCOC(=O)c1ccc(Nc2ncnc3ccccc23)cc1	-1.0	-14	-21	10	3483	-8	-3
COC(=O)c1ccccc1NC(=O)CSc1n[nH]c(-c2cccnc2)n1	6.2	-5	-18	11	4866	2	4
COCc1cc(/C=N\NC(=O)Cc2ccc(OC)cc2)ccc1OC	x	x	-15	-2	2664	x	x
CCOC(=O)C1CCCN(S(=O)(=O)c2ccc(Br)s2)C1 (stereo unspecified)	-0.7	-4	-25	-1	9213	2	-2
CC(=O)c1ccc(NC(=O)C2CCCN(S(=O)(=O)c3c(C)[nH]c(=O)[nH]c3=O)C2)cc1 (stereo unspecified)	2.4	-4	-2	-3	4818	3	11
COc1cc2cc(C#N)c(SCC(=O)N3CCOCC3)nc2cc1OC	6.9	3	72*	-7	4150	4	5
COc1ccc(S(=O)(=O)Nc2ccc(-c3ccc4nnc(C)n4n3)cc2)c(OC)c1	-2.3	-3	x	x	x	6	4
C=C(C)CNC(=S)N=Nc1c(O)[nH]c2ccc([N+](=O)[O-])cc12	-0.5	2	-5	7	4170	6	10
CNc1ncc(C(=O)c2ccc(Cl)c(Cl)c2)s1	5.0	-3	-56	-5	8986	-6	-3
NS(=O)(=O)c1ccc(CCNC(=O)C(=O)c2c[nH]c3ccccc23)cc1	11	3	-22	9	2114	3	-2
O=C(CCNS(=O)(=O)c1cccc2nonc12)NC1CCCCCC1	1.2	3	-9	2	3994	1	7
COCCn1c(SCC(=O)Nc2cc(OC)ccc2OC)nc2c(c1=O)SC(C)C2 (stereo unspecified)	2.3	-1	-11	-3	5240	-10	-12
CC1CCN(CCCNC(=O)C2CCC(CNS(=O)(=O)c3cccc4nsnc34)CC2)CC1 (stereo unspecified)	-0.4	0	7	-9	6253	-4	10
Cc1cc(NC(=O)CSc2nnc(C(C)N(C)C)n2-c2ccc(F)cc2)no1 (stereo unspecified)	4.0	19	-3	-2	3252	3	-1
O=C(COC(=O)Cc1ccc(Br)cc1)NCC1CCCO1 (stereo unspecified)	2.6	4	-13	x	3968	4	3
O=C(O)CCCNc1ccc(S(=O)(=O)N2CCCCC2)cc1	3.3	1	-22	-3	3913	2	10
CN(C)S(=O)(=O)c1cccc(NC(=S)NN=Cc2ccco2)c1	4.6	-1	x	x	x	5	-1
C/C(=N/NC(=O)c1ccc(Cl)s1)c1ccc(NC(=O)COc2ccc(Cl)cc2)cc1	x	x	8	-1	3179	x	x
Cc1nnc(NCc2ccncc2)c2ccccc12	2.7	-6	-8	1	11902	-20	-16
Cc1ccc(SCCNC(=O)C=Cc2ccc(Cl)cc2)cc1	-0.7	-5	x	x	x	-7	-3
CC(C)NC(=O)COCc1cc(-c2ccc3c(c2)OCO3)on1	-1.9	-4	-20	4	4023	13	1
Cc1ccc(-c2nn(CC(=O)NCc3ccccn3)c(=O)c3ccccc23)cc1S(=O)(=O)N(C)C	8.9	3	-16	-7	4612	7	8
Cc1ccc(C(=O)c2c(NC(=O)c3ccccc3)sc(C)c2C)cc1	5.6	2	-24	-6	24576*	3	11
COC(=O)C1=C(c2ccccc2)CC2CCC1N2C(=O)NCCNC(C)=O (stereo unspecified)	3.1	0	x	x	x	6	5
COc1ccccc1OCCNC(=O)c1ccc(C(C)(C)C)cc1	4.4	-3	-45	3	x	7	12
CCC(C)NC(=O)CSc1ccc(NC(C)=O)cc1 (stereo unspecified)	4.0	6	-6	-1	2326	x	x

The list goes on, overlapping the part above by 2 compounds.
SMILES	RN4220 kill	Sa ugtP lethal	PrP UTR inh	BJeLR lethal	Autofluor counter	Mtb hypoxia inh	Mtb hypoxia inh growth
COc1ccccc1OCCNC(=O)c1ccc(C(C)(C)C)cc1	4.4	-3	-45	3	x	7	12
CCC(C)NC(=O)CSc1ccc(NC(C)=O)cc1 (stereo unspecified)	4.0	6	-6	-1	2326	x	x
CCC1(c2ccccc2)NC(=O)N(CC(=O)c2ccc3c(c2)OCO3)C1=O (stereo unspecified)	4.8	4	-16	-7	7318	10	0
Cc1cc(CN2CCOCC2)c(O)c(C2(C)CCCCC2)c1	7.0	99*	-8	3	4285	x	x
COC(=O)C1=C(C)N(c2ccc(OC)c(OC)c2)C(=O)/C1=C\c1ccco1	-1.7	9	-24	3	2468	-8	-7
O=c1c2c([nH]c3ccccc13)CCCCCC2	4.2	-1	-25	7	22192*	2	16
COc1ccc(NC(=O)N2CCN(c3cccc(C(F)(F)F)c3)CC2)cc1OC	5.1	0	-13	10	19995*	0	0
CCc1sc(NC(=O)C(C)C)nc1-c1ccccc1	-11	1	-22	-6	3256	-4	9
Cc1ccc(NC(=O)NNC(=O)C2CC(c3cccnc3)=NO2)cc1 (stereo unspecified)	-1.7	3	-35	0	4549	x	x
Cc1ccc(-c2nn(-c3ccccc3)cc2CO)o1	4.8	-9	-108	5	3142	6	0
O=C(NN1C(=O)C2C(C1=O)C1C=CC2C12CC2)c1ccccc1 (stereo unspecified)	17	6	-12	1	2431	6	-1
COc1cc(OC)c(C2C(C#N)=C(N)OC3=C2C(=O)CC(C)(C)C3)cc1OC (stereo unspecified)	3.7	3	0&-11	5	4010	x	x
CCCn1c(SCC(=O)Nc2ccccc2Cl)nc(O)cc1=O	0.2	5	-16	x	4279	-5	0
Cn1c(-[n+]2c(-c3ccccc3)cc(-c3ccccc3)cc2-c2ccccc2)nc2cc([N+](=O)[O-])ccc21	5.5	-7	-10	-1	8957	0	7
CC(C)(C)SC(=O)CC1NS(=O)(=O)OCC1NC(=O)OCC(Cl)(Cl)Cl (stereo unspecified)	-13	-10	-9	12	3567	12	7
O=C(N1CCN(c2ccc(F)cc2)CC1)C12CC3CC(CC(C3)C1)C2	-3.4	-13	-15	-16	4270	6	3
